Screening data from PubChem.
Bead autofluor – compound fluorescence in toxin protease inhibitor counterscreen. compound autofluorescence counterscreen, microsphere flow cytometry; hits give high values. fluorescence intensity (test concentration not listed). actives 3.1% (n = 360,000). AID 624483;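 active = at least 3 SD above the mean of all compounds, about 16000 in these data; inconclusive = too few beads counted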;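 note: 100 nL of 1 mM stock went into each well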
RN4220 kill – growth inhibition of S. aureus RN4220, primary screen, OD600; 16 h; inhibition, % (concentration not given with the values); actives 0.33% (n = 330,000);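 active = z-score of -3 or lower and OD600 up to 0.18 on both plates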;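 note: plate controls were untreated cells for no effect and reference antibiotic for full effect; stock transfer was 100 nL into about 80 µL; one replicate is shown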
PrP 5UTR inh – inhibition of PrP 5' UTR reporter expression; inhibition, % (no concentration beside the values); cell-based PrP 5' UTR mRNA reporter, plate reader; actives 0.35% (n = 340,000); AID 488862, 2010;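 active = every replicate at 50% or more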;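 note: 0 = median of the neutral control wells; tested in H4 reporter cells; numbers are from one replicate; inactives centre near -14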
BJeLR viability – MLPCN primary cell-based screen for lethality selective to Ras in HRASV12 cells | actives 0.17% (n = 300,000) | AID 1554, 2009 | BJeLR (HRASV12) viability, CellTiter-Glo ATP luminescence, 48 h; reference of the scale not given here | inhibition, % (concentration not given with the values);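 active = replicate mean above 50%; inconclusive = above 50% but judged a plate artefact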;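 note: 50 nL library stock added to about 25 µL; numbers are from one replicate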
Mtb hypoxia rep – PubChem AID 1159583; M. tuberculosis hypoxia-regulated fluorescent reporter, fluorescence; fluorescence inhibition, % (no concentration beside the values); actives 0.1% (n = 300,000);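 active = 35 to 45% if threefold the growth effect, above 45% if 1.5-fold the growth effect; inactive = the rest, general growth blockers included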;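 note: wells of about 50 µL received 100 nL stock; 0% = vehicle wells and 100% = reference inhibitor wells; whole bacteria with a GFP reporter of the hypoxia response; strong numbers were not always called active; many hits fall short of the cut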
Sa ugtP lethal – growth inhibition of ugtP-null S. aureus, primary screen, RN4220 ugtP deletion, OD600. 16 h; some inactives read as strong as hits. growth inhibition, % (concentration not given with the values). actives 0.54% (n = 330,000);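 active = z-score under -3 and OD600 up to 0.15 on both plates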;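 note: plate controls were untreated wells for no effect and antibiotic for full effect; wells of about 80 µL received 100 nL stock; the first replicate is given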
Mtb hypoxia rep growth – second read-out of Mtb hypoxia rep, no call of its own (marks repeat the call); growth inhibition, %; measured here: M. tuberculosis growth (absorbance);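 0% = vehicle and 100% = reference antibiotic; read after six days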
Active calls of the source: *; ? = inconclusive; · = no result given.

SMILES	Bead autofluor	RN4220 kill	PrP 5UTR inh	BJeLR viability	Mtb hypoxia rep	Mtb hypoxia rep growth	Sa ugtP lethal
O=C(COC(=O)c1ccc(Cl)c(S(=O)(=O)N2CCOCC2)c1)Nc1ccc2[nH]c(=O)[nH]c2c1	3771	0.9	-6	·	6	-2	-3
Cc1cccn2c(=O)c3cc(S(=O)(=O)c4ccc(Br)cc4)c(=N)n(C4CCCCC4)c3nc12	5089	-3.9	-9	-13	-2	2	-9
O=C(Cc1ccc(Cl)cc1)OCc1nnc(-c2ccccc2)o1	2019	1.2	-7	-3	2	5	-8
CCCC(=O)Nc1ccc(N2CCN(CC)CC2)c(Cl)c1	3823	-1.4	-6	4	-4	-10	8
O=C(NCc1ccco1)c1cc(-c2ccc(Cl)cc2)on1	22771*	-0.5	-31	-1	0	12	-3
COc1ccc(-n2cnnc2SCC(=O)c2cc(C)n(Cc3cccs3)c2C)cc1	3356	9.0	-19	4	14	10	-6
Cc1ccc(CS(=O)Cc2ccc(C(=O)NC3CCCCC3)o2)cc1 (stereo unspecified)	4306	2.8	-2	10	4	1	-3
COC(=O)[C@]1(C)N[C@H](CN(C)S(=O)(=O)c2ccc(C(C)(C)C)cc2)[C@@H]2C(=O)N(C)C(=O)[C@@H]21	3662	0.8	-9	·	4	11	2
Cc1ccc(-c2csc(NC(=O)c3cccc(S(=O)(=O)N4CCN(C)CC4)c3)n2)cc1	3616	16	-14	-1	8	14	4
CCOC(=O)CSc1nc2c(cnn2-c2ccc(F)cc2)c(=O)[nH]1	4504	4.0	-8	0	5	-2	-2
O=C(CSc1nc2c(c(=O)n1-c1ccc(F)cc1)SCC2)Nc1ccc2c(c1)OCO2	13420	-2.4	-13	-5	2	2	-3
COc1ccc(C(=O)CC2SC(N)=NC2=O)cc1 (stereo unspecified)	4229	2.4	-22	-3	18	8	5
CCCS(=O)(=O)N1CCC(C(=O)c2cccc(C(F)(F)F)c2)CC1	9968	8.8	·	-2	17	7	-2
COC(=O)Cc1ccc(Oc2ncc(C(F)(F)F)cc2Cl)cc1	3277	2.7	-13	0	13	2	4
COc1ccc(C)cc1C(=O)CCC(=O)N1CCN(c2ccccc2F)CC1	6410	-4.8	-24	·	-9	3	2
CCCn1c(SCC(=O)NCc2ccc(F)cc2)n[nH]c1=O	4779	3.8	-24	4	-3	10	-3
O=C(COc1coc(CN2CCc3ccccc3C2)cc1=O)Nc1ccccc1F	?	-3.5	-3	5	10	3	5
CC(=NO)C(C)Oc1ccc(Cl)cc1 (stereo unspecified)	·	5.5	·	·	4	-1	0
COc1ccc(OCCN(C)C(=O)c2cccc(S(=O)(=O)N(C)c3ccccc3)c2)cc1	3570	1.7	10	·	-10	4	-4
CCSc1nc2ccccc2n1S(=O)(=O)c1ccccc1	5895	3.0	-22	·	16	10	8
COc1ccc(CCN2CCCC(CN(C)C(=O)c3ccoc3)C2)cc1 (stereo unspecified)	4324	0.9	-53	1	8	12	3
COc1cccc(N(C(=O)CNC(=O)c2ccco2)C(C(=O)NC2CCCC2)c2ccco2)c1 (stereo unspecified)	2806	0.8	-9	-2	0	-4	2
O=C(O)Cc1ccc(OCc2ccc(Cl)nc2)cc1	2067	4.8	2	13	-3	3	1
CSc1nc2nc(-c3ccc(F)cc3)c(CCN3CCN(C)CC3)cn2n1	3890	3.9	-8	8	5	8	3
O=C1Nc2ccccc2C12NCCc1c2[nH]c2ccccc12 (stereo unspecified)	7748	2.5	·	-1	9	-3	6
COCCN(C(=O)COC(=O)c1ccc(Cl)nc1)c1c(N)n(Cc2ccccc2)c(=O)[nH]c1=O	5547	1.4	-20	2	9	-2	5
CCOC(=O)c1ccc(-c2ccc(/C=C(\C#N)C(=O)NCC3CCCO3)o2)cc1 (stereo unspecified)	22009*	·	-21	10	·	·	·
COC(=O)c1cc(NC(=O)c2cc(-c3ccc(C(F)(F)F)cc3)oc2C(F)(F)F)ccc1N1CCOCC1	4641	8.6	-25	3	-21	-4	-38
CC/C(=N\NC(=O)c1c(C)nc2ccccn12)c1ccccc1	5880	·	-15	-1	·	·	·
CN1C(=O)C2C[C@@]3([C@@]45CC6C(=O)N(C)C(Cc7ccccc7)C(=O)N6C4Nc4ccccc45)c4ccccc4NC3N2C(=O)C1Cc1ccccc1 (stereo partly specified)	·	6.9	·	·	8	3	6
COc1ccc(N2CCN(C(=O)CCc3nc(-c4ccc(C)cc4)no3)CC2)cc1	3445	6.8	0	4	12	17	-2
O=c1c2cccnc2[nH]c(=S)n1Cc1ccccc1	2731	1.9	2	4	3	10	0
Cc1ccc(S(=O)(=O)N(C)CC(=O)OCC(=O)NCCN2C(=O)CSC2=O)cc1	4026	6.2	-16	·	-5	2	8
CCc1cc2c(cc3c(=O)n(CC(=O)NCCCN4CCCCCC4)nc(CC)n32)s1	6463	2.4	5	-4	-1	6	2
Cc1ccc(CN2C(=O)CCC2C(=O)NCc2ccc(F)cc2)cc1 (stereo unspecified)	3571	3.7	2	5	8	7	0
c1ccc(NCc2nc3ccccc3n2CCOc2ccccc2)cc1	2653	4.3	-7	-6	0	6	-10
C=CCOC(=O)c1ccc(N2CCN(c3ccccc3)CC2)nc1	2795	0.3	-7	-13	-6	-6	-1
CCOC(=O)c1nc(NNC(=O)c2ccc([N+](=O)[O-])cc2)sc1C	4295	2.6	-4	26	-5	3	-1
Cc1cccc(-n2ncc3c(=O)[nH]c(SCC(=O)NCCC4=CCCCC4)nc32)c1	3780	2.9	0	·	0	1	-1
Cc1ccc(CNC(=O)[C@H]2C[C@@H]2[C@H](NP(=O)(c2ccccc2)c2ccccc2)c2ccccc2)o1	3914	·	-8	18	·	·	·
O=C(C1CC=CC2CCN(Cc3ccc(Cl)c(Cl)c3)C(=O)C21)N1CCOCC1 (stereo unspecified)	·	5.5	·	·	7	9	-6
CNC(=O)NC1CCCCc2sccc21 (stereo unspecified)	16866*	-1.8	-8	-9	-5	0	-2
O=C(O)Cn1c(SCCOc2ccccc2)nc2ccccc21	10926	5.3	-18	5	12	9	4
CC1C/C(=N\NC(N)=S)c2cc(Cl)ccc2S1 (stereo unspecified)	4543	·	-23	-12	·	·	·
O=C(O)[C@@H]1Cc2c([nH]c3ccccc23)C2CCC(=O)N21 (stereo partly specified)	4479	5.1	-8	2	4	4	4

One compound at a time (already shown). Order of screens: Bead autofluor	RN4220 kill	PrP 5UTR inh	BJeLR viability	Mtb hypoxia rep	Mtb hypoxia rep growth	Sa ugtP lethal
Profile of `CC1C/C(=N\NC(N)=S)c2cc(Cl)ccc2S1` (stereo unspecified) = 4543	·	-23	-12	·	·	·
Profile of `Cc1ccc(CNC(=O)[C@H]2C[C@@H]2[C@H](NP(=O)(c2ccccc2)c2ccccc2)c2ccccc2)o1` = 3914	·	-8	18	·	·	·
Profile of `COc1ccc(N2CCN(C(=O)CCc3nc(-c4ccc(C)cc4)no3)CC2)cc1` = 3445	6.8	0	4	12	17	-2
Profile of `Cc1cccc(-n2ncc3c(=O)[nH]c(SCC(=O)NCCC4=CCCCC4)nc32)c1` = 3780	2.9	0	·	0	1	-1

Next entries.
SMILES	Bead autofluor	RN4220 kill	PrP 5UTR inh	BJeLR viability	Mtb hypoxia rep	Mtb hypoxia rep growth	Sa ugtP lethal
CS(=O)(=O)NNC(=O)Cn1nnc(-c2ccc(OCc3ccccc3Cl)cc2)n1	4552	-0.6	-40	3	3	-4	1
Cc1cccnc1NC(=O)CSc1nnc(CNC(=O)c2cccc([N+](=O)[O-])c2)n1C	5592	-6.8	0	-7	-1	3	10
CCOC(=O)CCC(=O)N1CCOCCOCCN(C(=O)CCC(=O)OCC)CCOCC1	3214	4.3	-21	-1	·	·	2
O=S1(=O)NC2c3ccccc3CC2O1 (stereo unspecified)	3942	7.8	-10	10	2	-5	0
O=C(CC12CC3CC(CC(C3)C1)C2)Nc1ccc2c(c1)COC2=O	3594	3.6	-21	-12	10	8	-15
Cc1c(C(=O)OC(C)C)sc(N)c1C(=O)OC(C)C	2098	2.2	-62	6	-3	1	-3
COc1ccc(CN2CCn3nc(C(=O)NC4CC4)cc3C2=O)cc1	3143	5.7	-8	-2	4	9	-3
CC1=CC=CC2=NC(=O)CC(C)(C(=O)N(CC(=O)NC3CCCC3)c3ccccc3C)N12 (stereo unspecified)	3769	2.9	-29	5	7	10	1
COCCNC(=O)c1ccccc1N(Cc1ccccc1)S(=O)(=O)c1ccccc1	5213	4.5	·	5	2	-2	7
COc1ccc([N+](=O)[O-])cc1NS(=O)(=O)Cc1ccccc1	3687	4.5	-2	16	-5	3	8
CCOC(=O)c1sc2cc([N+](=O)[O-])cc(SCCO)c2c1N	2555	4.2	-7	-13	12	3	-4
CCSc1nc2sc3c(c2c(=O)n1C1CCCCC1)CCN(C)C3	5142	1.0	-15	·	2	4	29
CC(C)N1CCN(Cc2cccs2)CC1CCO (stereo unspecified)	2511	2.2	-1	-9	9	1	11
COc1ccc(C(C)C)cc1S(=O)(=O)NC1CCCC1	5945	-1.5	-20	4	-9	-5	-8
Oc1[nH]c(=S)sc1/C=C1\C(c2ccccc2)=Nc2ccccc21	2431	-3.6	-7	2	11	0	-5
Cc1ccc(NC(=O)c2ccccc2)cc1OC(=O)c1ccccc1	9696	4.1	-20	2	9	-1	19
COc1ccc(-n2c(Cc3cccn3C)nnc2SCC(=O)NCc2ccc(F)cc2)cc1	5533	4.0	-35	-3	·	·	10
Cc1ccc2nc3c(c(N)c2c1)CCN3c1ccccc1	3782	-2.4	-18	-3	-4	6	2
COc1ccc(/C=C/C(=O)NC(=S)NNC(=O)c2cc(OC)c(OC)c(OC)c2)cc1OC	·	9.6	·	6	1	-11	-16
CCN(CC)c1ccc(N2C(=O)/C(=C/c3cccnc3)SC2=S)cc1	4192	3.2	0	-3	3	1	-21
CC1CC(=O)Nc2ccccc2N1 (stereo unspecified)	3141	1.9	-12	·	14	7	7
COc1ccc(C(=O)Nc2cccc(C(C)=NNC(=O)c3ccc([N+](=O)[O-])c(C)c3)c2)cc1OC	·	-1.5	·	·	11	6	4
Cc1ccc(S(=O)(=O)N/N=C/c2ccc(OCC(=O)NC(C)C)cc2)cc1	2388	·	-12	-3	·	·	·
CCCCc1cc(=O)oc2c(C)c(OCC(=O)NCCN3CCOCC3)ccc12	4452	1.1	-14	0	3	-4	-4
O=C(CSc1nnnn1-c1ccc(Cl)cc1)NC1CCS(=O)(=O)C1 (stereo unspecified)	?	-2.6	-6	·	4	0	-1
O=C(Cc1ccc(F)cc1)Oc1ccc(C(=S)N2CCCC2)cc1	2009	5.1	-9	-9	2	2	14
CCOC(=O)c1nn(-c2ccccc2F)c2nc(-c3ccco3)c(C#N)c(=O)n12	2673	-3.0	-4	1	-6	8	-3
CCOC(=O)c1ccc(NC(=O)C2(c3ccccc3)CCOCC2)cc1	2446	12	-7	-13	8	2	10
Clc1ncccc1-c1nnn(-c2ccccc2Br)n1	3925	6.7	-6	-11	8	7	-8
Nc1c2c(nc3cccc(Cl)c13)N(c1ccccc1)CC2	3845	-0.3	-14	-2	10	4	-3

In the list so far, three have a COOH group:
SMILES	Bead autofluor	RN4220 kill	PrP 5UTR inh	BJeLR viability	Mtb hypoxia rep	Mtb hypoxia rep growth	Sa ugtP lethal
O=C(O)Cc1ccc(OCc2ccc(Cl)nc2)cc1	2067	4.8	2	13	-3	3	1
O=C(O)Cn1c(SCCOc2ccccc2)nc2ccccc21	10926	5.3	-18	5	12	9	4
O=C(O)[C@@H]1Cc2c([nH]c3ccccc23)C2CCC(=O)N21 (stereo partly specified)	4479	5.1	-8	2	4	4	4

Carrying on.
SMILES	Bead autofluor	RN4220 kill	PrP 5UTR inh	BJeLR viability	Mtb hypoxia rep	Mtb hypoxia rep growth	Sa ugtP lethal
CCc1ccc(C2CC(=O)N3CN(c4ccccc4)CSC3=C2C#N)cc1 (stereo unspecified)	6104	-3.9	-27	-15	8	5	1
O=C(CCC1CCCN(C(=O)c2cncs2)C1)NCc1ccc(F)c(F)c1 (stereo unspecified)	2030	1.6	-25	-1	-4	10	-1
c1cc2c(cc1CCNC1C3CC4CC(C3)CC1C4)OCO2 (stereo unspecified)	8805	11	-32	2	15	10	-9
Cc1ccc(C=NNC(=O)c2nnn(-c3nonc3N)c2CNc2ccccc2)cc1	·	1.7	·	·	6	1	-2
CCC(CC)NC(=O)Cc1ccccc1[N+](=O)[O-]	2683	0.0	-12	0	·	·	-3
CCN1C(=O)[C@H]2[C@@H](c3ccc(C)cc3)N3C(=O)N(c4ccc(C)cc4)C(=O)[C@@]3(Cc3ccc(Cl)cc3)[C@H]2C1=O	3730	-10	-31	1	8	4	1
